Assay outcomes from PubChem BioAssay.
MT1-MMP act inh – blockers of MT1-MMP proenzyme processing, primary screen, HT1080 RFP-PRO-GFP cells, GFP/RFP fluorescence; Matrix metalloproteinase-14 (Homo sapiens), P50281; GFP/RFP ratio fluorescence, overnight; percent of plate control window, DMSO zero; GFP/RFP ratio change, % at 20 µM; 360,000 compounds, 0.061% hits; AID 651647, 2012;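 active = GFP/RFP ratio change of at least 30% with cell ATP level not reduced by more than half and red fluorescence within 50% of control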; note: strong numbers were not always called active
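Assay system: RFP-PRO-GFP reporter HT1080 cells; read-out basis: GFP/RFP fluorescence ratio; benchmarks: DMSO wells and RFP-L50D-GFP cells; doses: 20 µM single dose, 1% DMSO; schedule: overnight cell settling, then overnight compound exposure, 37 °C, 5% CO2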
UUG fidelity – modulators of yeast start codon fidelity, primary screen, whole organism, S. cerevisiae, single point, plate reader; S. cerevisiae UUG-firefly luciferase reporter, luminescence/redox ratio; activity score, % at 18.7 µM; 350,000 compounds, 0.13% hits;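 active = replicate mean at a twofold rise or more, about +100% in these data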;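 note: firefly luciferase made from a UUG start codon reports start codon fidelity; reporter light over untreated wells divided by growth signal over untreated wells; some hits fall short of that in this replicate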
PABP FP inh – PABP poly(A) RNA binding inhibitors, primary screen, biochemical, fluorescence polarization, uHTS. Polyadenylate-binding protein 1 (Homo sapiens), P11940. inhibition, % at 35 µM. 290,000 compounds, 1% hits. AID 2014, 2009;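 active = 50% or more with normal probe brightness, or confirmed in later tests; inconclusive = above 50% with abnormal brightness, or retests that disagree; inactive = below 50% or failed in later tests; about a fifth of its hits are not listed in these tables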;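 note: calls also rest on retests at 20 µM and on dose response follow-up; controls were probe without protein and protein plus probe with vehicle; some compounds called inactive have numbers as strong as hits; many hits fall short of the cut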
Target sequence (P11940 whole entry, looked up): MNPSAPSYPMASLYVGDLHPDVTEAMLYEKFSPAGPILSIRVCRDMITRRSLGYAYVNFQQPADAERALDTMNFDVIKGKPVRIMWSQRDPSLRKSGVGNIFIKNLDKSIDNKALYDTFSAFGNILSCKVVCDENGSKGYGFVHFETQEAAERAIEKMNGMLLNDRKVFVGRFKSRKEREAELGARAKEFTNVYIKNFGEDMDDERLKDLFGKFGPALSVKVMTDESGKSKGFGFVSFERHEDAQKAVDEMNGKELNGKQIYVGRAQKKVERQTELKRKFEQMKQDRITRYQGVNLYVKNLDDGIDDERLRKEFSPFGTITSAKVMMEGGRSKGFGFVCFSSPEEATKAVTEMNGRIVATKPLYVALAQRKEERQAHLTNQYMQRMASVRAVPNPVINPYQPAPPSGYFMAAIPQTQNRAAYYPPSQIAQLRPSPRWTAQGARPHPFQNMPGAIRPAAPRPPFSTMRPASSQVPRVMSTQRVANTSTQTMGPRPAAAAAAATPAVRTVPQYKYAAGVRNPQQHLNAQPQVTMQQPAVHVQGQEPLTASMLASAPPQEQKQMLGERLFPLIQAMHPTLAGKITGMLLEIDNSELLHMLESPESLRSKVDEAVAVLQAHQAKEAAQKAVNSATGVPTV
Rce1 inh – yeast Rce1p protease inhibitors, primary screen, biochemical, fluorescence, cell-free homogeneous. CAAX prenyl protease 2 (Saccharomyces cerevisiae (strain ATCC 204508 / S288c)), Q03530. 290,000 compounds, 0.27% hits. yeast membranes, quenched prenylated peptide cleavage fluorescence. calls only. AID 2563, 2010;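 active = fall in fluorescence gain of 50% or more versus controls, with final raw signal at or below 3038400; inconclusive = same 50% fall but final raw signal above 3038400; inactive = fall in fluorescence gain under 50%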;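 note: plate controls were neutral control wells for no effect and wells lacking membranes for full effect; tested at 10 µM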
Env fusion inh – inhibitors of HIV-1 Env-driven cell-cell fusion, primary screen, HeLa-JRFL effector, CEM21 target cells, luciferase; inhibition, % at 12.3 µM; 360,000 compounds, 1.1% hits; AID 651610, 2012;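 active = mean replicate inhibition score of at least 50 and every replicate individually at or above 50; inconclusive = only one of the two criteria met; inactive = mean below 50 and not all replicates reaching 50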;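 note: 0% = plate neutral controls and 100% = maraviroc near 300 nM; one replicate is shown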
eIF4H inh – human eIF4H binding inhibitors, primary screen, translation initiation inhibitor project, biochemical, uHTS, fluorescence polarization; 290,000 compounds, 0.94% hits; eIF4H fluorescence polarization binding assay; AID 2012, 2009; inhibition, % at 35 µM;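 active = 50% or more with normal probe brightness, or confirmed in later tests; inconclusive = above 50% with abnormal brightness, or retests that disagree; inactive = below 50% or failed in later tests; about a fifth of its hits are not listed in these tables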;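 note: calls also rest on retests at 20 µM and on dose response follow-up; 0% = protein and probe with vehicle and 100% = probe without protein; strong numbers were not always called active; many hits fall short of the cut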
CSC inhib – cancer stem cell viability inhibitors, primary screen, luminescence. cancer stem cell-like cells viability. inhibition, % at 7.5 µM. 300,000 compounds, 1.1% hits. AID 2717, 2010;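 active = mean at 75% or more and at least half the replicates too; inconclusive = mean and replicates disagree; tested in HMLE shEcad cells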;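 note: 0% = median of negative and 100% = median of positive control wells; the first replicate is given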
MT1-MMP act inh RFP – recorded beside MT1-MMP act inh, whose call it bears; RFP signal change, %; measured here: RFP expression control read;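 0 = vehicle wells; hits needed this value within 50% of zero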
An asterisk follows results filed as active; i = inactive; ? = inconclusive; · = not tested or not shown. Not all compounds are listed; rates above refer to the full screens.

Fields – MT1-MMP act inh	MT1-MMP act inh RFP	UUG fidelity	PABP FP inh	Rce1 inh	Env fusion inh	eIF4H inh	CSC inhib
Cc1ccc(CNC(=O)CNC(=S)N(Cc2ccccc2)Cc2ccccc2F)cc1
 : -4	-14	·	?	i	16	-3	·
CCc1ccc(NC(=O)N(CCCN2CCOCC2)C(C)c2cc3cccc(OC)c3o2)cc1 (stereo not drawn)
 : 3	3	-4	-12	i	·	-3	3
Cc1ccc(S(=O)(=O)NCC(=O)OCC(=O)Nc2ccc(C)c(S(=O)(=O)N3CCOCC3)c2)cc1
 : 0	0	-13	·	·	·	·	-12
COC(=O)c1ccc2[nH]cc(CCO)c2c1
 : 3	4	-4	14	i	-1	6	-8
O=C(CSc1nnc(-c2ccco2)o1)NC(=O)Cc1ccccc1
 : -3	4	-5	4	·	·	2	6
COc1cccc(CN(C)Cc2cc(=O)oc3cc(O)c(Cl)cc23)c1
 : 0	2	-8	11	i	0	10	-4
C=CCn1c(COc2ccccc2F)nnc1SCC(=O)Nc1cc2oc3ccccc3c2cc1OC
 : 1	-6	·	0	i	·	6	27
N#Cc1cc2c(ccc3ccccc32)oc1=O
 : -8	-7	·	22	i	0	7	-20
COc1cc(Cl)ccc1OCc1cc(C(=O)N(C)CC2CCCCO2)no1 (stereo not drawn)
 : -3	-6	-9	3	i	-33	3	-8
COc1ccc(OC)c2nc3c(cc12)CCC3
 : 5	5	-14	17	i	2	15	-7
CCOc1ccc2nc(Cl)sc2c1
 : 5	6	·	29	i	-2	-1	1
Cc1noc(C)c1CSc1nnc(-c2c[nH]c3ccccc23)n1-c1ccc(Cl)cc1
 : 1	5	-5	-4	i	·	-2	-6
NCCNC[C@@H]1COC2(CCCCCCCCCCC2)O1
 : 4	-6	-15	-2	·	31	-6	-8
COC(=O)c1ccccc1NC(=O)Cn1nc(C(F)(F)F)c2c1CCC2
 : 2	-9	1	5	i	12	-10	-2
CCN(CC)CCCN=Cc1c(O)n(-c2cccc(C)c2)c(=O)c2ccccc12
 : 3	-1	-17	2	i	7	-3	-2
CCOc1ccc(NC(=O)CCC(=O)NNC(=O)Nc2ccc(Cl)cc2)cc1
 : 3	-5	·	-3	i	0	-1	6
O=c1c2c3c(sc2n2cnnc2n1-c1ccccc1)N(Cc1ccccc1)CCC3
 : ·	·	·	26	i	·	6	-1
Cc1ccc(NC(=S)NNC(=O)c2cn(C)nc2C)cc1
 : -2	-1	-33	-5	i	-29	2	-12
CC(C)CC(=O)Nc1c(C(=O)N2CCN(Cc3ccccc3)CC2)oc2ccccc12
 : 3	-1	-5	5	i	0	1	-9
N#Cc1c(N)c(C#N)c(-c2ccc(O)cc2)c2c1CCCC2
 : -5	-17	11	-6	i	·	-9	21
O=C(CCn1c(=S)oc2ccccc21)NC1CCCCCC1
 : -2	-1	·	10	i	9	-7	-20
O=C(c1cc(-c2cccnc2)nc2ccc(Cl)cc12)N1CCN(S(=O)(=O)c2cccs2)CC1
 : -1	-6	-18	-12	i	38	3	-7
O=C(CN1CCN(c2ccccc2O)CC1)Nc1ccc(S(=O)(=O)N2CCCCCC2)cc1
 : 6	-5	1	·	·	-15	·	·
NS(=O)(=O)c1ccc(NC(=O)COC(=O)C23CC4CC(CC(C4)C2)C3)cc1
 : 0	1	·	-5	i	·	8	-2
COc1ccc(NC(=O)CC(C)=O)c(OC)c1
 : -1	1	·	-3	i	2	4	·
CC(OC(=O)c1ccco1)C(=O)NCc1cccs1 (stereo not drawn)
 : -6	2	-3	11	i	-3	-4	-3
Cc1ccc(-c2c(C(=O)N/N=C/c3ccc(C)o3)nnn2-c2nonc2N)cc1
 : -1	2	-18	1	i	-6	-7	-9
COc1ccc(CN(CCNC(=O)CCCCC(=O)NCCN(Cc2ccc(OC)cc2)C(C)C)C(C)C)cc1
 : 6	8	·	·	i	7	·	3
COc1ccc(-n2c(Cc3cccn3C)nnc2SCC(=O)Nc2ccc3c(c2)OCO3)cc1
 : 0	1	-4	-13	i	-18	6	0
N#Cc1ccccc1/C=C/C(=O)N1CCOCC1
 : 0	5	·	-4	i	8	-8	·
COc1ccc(NC(=O)C2(C)Cc3c(-c4cccc(C(N)=O)c4)ccnc3O2)cn1 (stereo not drawn)
 : 4	-7	-8	·	·	-40	·	·
N/C(=N\OC(=O)COc1ccc(Br)cc1Cl)c1ccncc1
 : 3	-2	·	4	·	-48	-7	16
COCCN(CCOC)S(=O)(=O)c1ccc(OC)cc1
 : -1	6	-2	8	i	·	-2	-19
CC(C)=CCc1cc([C@@H]2CC(=O)c3ccc(O)c(CC=C(C)C)c3O2)ccc1O
 : -12	-21	1	·	i	·	·	-8
COc1cccc(NC(=O)Nc2nnc(CC(=O)Nc3ccccc3)s2)c1
 : -14	-13	-1	8	i	27	-10	-17
O=C(CS(=O)(=O)c1ccc2ccccc2c1)N1CCCCCC1
 : 0	0	·	-15	i	-25	-11	-10
O=C1OC(c2ccccc2)(c2cc(Br)c(O)c(Br)c2)c2ccccc21 (stereo not drawn)
 : 1	-1	-2	·	·	16	·	·
COc1cc(C)c(Cl)c(C)c1S(=O)(=O)NCc1cccnc1
 : -5	-2	-15	-16	i	-13	7	1
CCOC(=O)c1sc(-c2ccccc2)cc1N
 : 1	5	-7	-8	·	-132	-5	3
O=C(Cc1ccccc1)NNC(=O)Nc1ccccc1
 : 1	0	·	11	i	-8	-1	·
O=C(N[C@@H]1C/C=C\C[C@@H](CC(=O)N(CCO)Cc2ccccc2)C(=O)NC[C@H](c2ccccc2)OC1=O)OCC1c2ccccc2-c2ccccc21
 : 1	0	-15	·	·	-57	·	·
Cc1ccc(CS(=O)(=O)CCC(=O)NCCN2CCCCC2C)cc1 (stereo not drawn)
 : 1	4	·	1	i	·	-2	1
O=C(Cc1c[nH]c2ccccc12)Nc1ccccc1N1CCOCC1
 : 0	5	-5	-4	i	-6	1	-10
CC(=O)N(c1ccc(C(C)C)cc1)C1C=CS(=O)(=O)C1 (stereo not drawn)
 : 10	9	-15	3	i	·	5	2
CN(CCC#N)C(=O)COC(=O)c1nn(-c2ccccc2)c(=O)c2ccccc12
 : -3	0	·	7	i	-11	7	5
Cc1nn2cc(-c3ccc(Cl)cc3)nc2s1
 : 13	-6	-25	-5	i	-447	0	-19
COc1cccc(CNS(=O)(=O)c2ccc3c(c2)N(C(C)=O)CCS3)c1
 : -2	-12	14	-4	i	2	22	-7
C=CCn1c(-c2cccs2)nc2nc3ccccc3nc21
 : -1	0	-17	9	i	·	5	1
CC1=C(C(=O)N(C(C)C)C(C)C)CC(CC(=O)NCCc2ccccn2)C(=O)N1Cc1ccccc1 (stereo not drawn)
 : 4	1	-19	·	·	0	·	·
CCOC(=O)C1CCN(C(=O)Nc2ccc3nc(C)c(C)nc3c2)CC1
 : 2	1	-8	10	i	·	-14	-19

Looked up one by one from above, two records:
Fields – MT1-MMP act inh	MT1-MMP act inh RFP	UUG fidelity	PABP FP inh	Rce1 inh	Env fusion inh	eIF4H inh	CSC inhib
CCOC(=O)C1CCN(C(=O)Nc2ccc3nc(C)c(C)nc3c2)CC1
 : 2	1	-8	10	i	·	-14	-19
O=C(N[C@@H]1C/C=C\C[C@@H](CC(=O)N(CCO)Cc2ccccc2)C(=O)NC[C@H](c2ccccc2)OC1=O)OCC1c2ccccc2-c2ccccc21
 : 1	0	-15	·	·	-57	·	·

The listing continues:
Fields – MT1-MMP act inh	MT1-MMP act inh RFP	UUG fidelity	PABP FP inh	Rce1 inh	Env fusion inh	eIF4H inh	CSC inhib
O=C(NCCCN1CCOCC1)c1c(O)c2cc(Br)cc(Br)c2[nH]c1=O
 : -3	-11	15	1	·	·	-1	2
Nc1c(-c2ccccc2)cnn1-c1cccc(Cl)c1
 : -2	-5	-9	-5	i	-128	-10	2
CCNc1nc(Oc2ccc(OC)cc2)cc(C(F)(F)F)n1
 : -12	-15	-7	-7	i	-11	-4	4
CCn1cc(S(=O)(=O)NCCc2ccc(OC)c(OC)c2)cn1
 : 1	4	-9	-8	i	-22	-2	-4
COc1cccc(CNC(=O)Cn2ncc3c(=O)oc4ccccc4c32)c1
 : -5	1	-3	3	i	14	-3	-16
O=C(CCNS(=O)(=O)c1ccccc1)Nc1ccccc1
 : -1	2	-4	-5	i	0	-1	-13
COc1cccc(NC(=O)CNS(=O)(=O)c2ccc(Cl)cc2)c1
 : 7	3	·	1	i	·	0	-3
CCOc1ccc(/C(O)=C2/C(=O)C(=O)N(CCOCCO)C2c2cccnc2)cc1 (stereo not drawn)
 : 1	3	-17	4	i	·	11	-12
COc1ccc(-c2c(-c3cc(OC)cc(OC)c3)n(C)c3ccc(-c4ccc(SC)cc4)cc23)cc1
 : -1	2	-20	·	·	?	·	-19
Nc1cc(=O)[nH]c(SCC(=O)Nc2cccc(S(=O)(=O)N3CCCCC3)c2)n1
 : -1	5	·	·	·	-5	·	-1
CC(C)Cn1c(N)c(C(=O)CSc2nnnn2C)c(=O)n(C)c1=O
 : 4	2	-18	4	i	·	-3	-6
COC(=O)c1sccc1NC(=O)Cc1ccc(OC)c(OC)c1
 : 1	0	·	-7	i	17	-2	·
O=c1onc(-c2ccc(Cl)cc2Cl)n1-c1cccnc1
 : -1	3	-5	1	i	-2	1	-5
Cc1c2ccccc2cc[n+]1CCCS(=O)(=O)[O-]
 : 0	6	·	0	i	-15	5	-23
CCn1c(SCC(=O)NCCCN2CCCC2=O)nnc1-c1cccc(C)c1
 : -1	5	1	·	·	-7	·	·
O=C(NCC1(c2ccccc2)CCCC1)c1ccccc1
 : -5	0	·	-9	i	33	2	-8
COc1ccccc1C(=O)NC(=S)Nc1cccc2cc(O)ccc12
 : 4	1	-2	12	i	-35	5	56
COc1cc(CNn2cn[nH]c2=S)cc(Cl)c1OCc1ccc(F)cc1
 : 7	-4	·	3	i	7	-4	5
O=C(COc1ncnc2cc([N+](=O)[O-])ccc12)NC1CCCCC1
 : 3	2	-12	5	i	-9	-4	-8
CC(=O)Nc1nonc1-c1nc2ccccc2n1CC1CC1
 : -3	-8	-8	11	i	22	13	1
COc1ccc(CNC(=O)CCCC(=O)Nc2cccc(Br)c2)cc1
 : 0	-2	-12	0	i	-3	0	1
C[C@]12CCC3C(CC=C4C[C@@H](O)CC[C@@]43C)C1CCC2[C@]1(C)CCC(=O)O1 (stereo partly drawn)
 : 0	1	-8	-8	i	·	2	·
O=C(Nc1cccc(S(=O)(=O)N2CCCCC2)c1)C1CC(=O)N(Cc2ccco2)C1 (stereo not drawn)
 : -1	-4	·	-1	i	5	6	-19
CCC(Sc1nc(C)cc(=O)[nH]1)C(=O)Nc1nc(-c2ccccc2)cs1 (stereo not drawn)
 : 1	-3	-15	3	i	-24	11	·
C[C@H]1CN=C2N(CCNC(=O)CCC3CCCCC3)[C@H](Cc3ccc(O)cc3)CN21
 : -1	1	1	-7	i	12	-8	-2
Cc1ccc2c(C)nc(N/C(N)=N/S(=O)(=O)c3ccc([N+](=O)[O-])cc3)nc2c1
 : 4	-12	-17	-1	i	-20	5	15
C=CCC[C@H](Cc1ccc(F)cc1)C(=O)OC[C@@H](NC(=O)[C@H](CC=C)CC(=O)NCCO)c1ccccc1
 : 2	-2	-13	·	·	37	·	·
CCOc1ccccc1N1CCN(c2ncnc3scc(-c4ccc(OC)cc4)c23)CC1
 : -4	-10	-14	-1	i	7	-6	7
